Bioassay records deposited in PubChem by National Center for Advancing Translational Sciences (NCATS).
TRPML1 ag – agonists of human TRPML1 channel; activation, % (test concentration not listed); Q9GZU1; AID 624414; hit rate 0.12% among 410,000; TRPML1-expressing cells, Ca2+ dye fluorescence, FDSS; host cell line not named in the record; reference of the full effect not given here; in the data active = activation above about 50%; inconclusive = about 30% to 50%; inactive = below about 30%; also: 0% is about no effect; the text of the record puts the active cut at 80%
Target sequence (Q9GZU1 whole entry, looked up): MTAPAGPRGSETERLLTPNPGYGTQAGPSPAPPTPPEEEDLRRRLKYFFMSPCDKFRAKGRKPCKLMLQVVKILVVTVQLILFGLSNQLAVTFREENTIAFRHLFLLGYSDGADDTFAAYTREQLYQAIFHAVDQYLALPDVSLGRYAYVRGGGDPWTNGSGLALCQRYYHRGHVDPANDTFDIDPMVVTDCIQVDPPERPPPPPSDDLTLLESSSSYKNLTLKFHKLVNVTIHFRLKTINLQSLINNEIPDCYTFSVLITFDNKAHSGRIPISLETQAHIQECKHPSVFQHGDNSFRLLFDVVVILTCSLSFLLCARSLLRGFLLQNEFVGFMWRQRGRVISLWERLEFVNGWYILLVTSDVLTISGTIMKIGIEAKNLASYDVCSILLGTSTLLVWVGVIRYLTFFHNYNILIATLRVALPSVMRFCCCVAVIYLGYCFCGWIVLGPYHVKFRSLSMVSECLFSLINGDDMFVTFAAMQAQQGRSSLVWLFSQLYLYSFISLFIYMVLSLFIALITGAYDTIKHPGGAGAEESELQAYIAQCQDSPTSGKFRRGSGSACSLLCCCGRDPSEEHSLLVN
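Agonist activity was taken from a 110 s kinetic Ca2+ dye read on the FDSS after pinning compounds onto TRPML1-DL cells. The cells were seeded at 1,500/well with Tet inducer, incubated about 16 h, then dye-loaded at room temperature.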
gsp agonist – activates gsp, the McCune-Albright syndrome mutation; gsp mutant cells, cAMP HTRF, 30 min; control for the full effect not named in the record; hit rate 0.13% among 340,000; Potency, µM (titrated, usually from 76.9 µM), inactives show top-dose activation (cAMP increase), actives largely listed as activators; active = well fitted activation curve with a large enough effect; inconclusive = small, poorly fitted or top-dose-only effect, or another doubt; inactive = no such curve, though single readings can be large or run the other way; cell line not stated here;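 also: phosphodiesterase inhibitor Ro 20-1724 added with compounds to block cAMP breakdown; potency is read from the fitted curve at half-maximal effect; nearly all actives have a fitted effect of over 60% in size; about a fifth of the inactives were tested at one dose only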
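Cells stably selected in G418 were plated at 2000/well, grown 16-24 hr, then given compounds in DMSO with the PDE inhibitor […] (300 uM solution added) for 30 min at 37C; cAMP was read by HTRF.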
gsp antag – antagonizes gsp, the McCune-Albright syndrome mutation. hit rate 0.4% among 340,000. AID 624288. Potency, µM (top dose mostly 76.9 µM), for inactives: at the highest dose activity change, negative = inhibition, hits mostly inhibitors. gsp-mutant cells, cAMP HTRF, 30 min; control for the full effect not named in the record; active = falling curve of any shape with a large fitted effect; inconclusive = falling curve, mostly with a smaller effect; inactive = flat or rising curve; cell line not stated here;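 also: intracellular cAMP measured with PDE inhibitor Ro 20-1724 present during compound exposure; potency is read from the fitted curve at half-maximal effect; % is scaled to controls: 0 for no effect and ±100 for the full control effect; nearly all actives have a fitted effect of over 65% in size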
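Cells, 2000/well, grown 16–24 h in DMEM 10% FBS with 0.5 mg/ml G418, then compounds plus […] (300 uM addition stock), 30 min at 37C. cAMP read by HTRF (cAMP-d2 and anti-cAMP antibody-K in lysis buffer) after 30 min RT.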
Menin-MLL FL inh – menin-MLL binding inhibition, fluorescein peptide; FP activity change, % at 61.4 µM; 290,000 tested, under 10 active; Fluorescence polarization, fluorescein-MLL peptide displacement from menin; inconclusive = falling polarisation curve, or a change in total fluorescence; inactive = total fluorescence flat and polarisation flat or rising; no compound was filed as active; the % refers to the polarisation; negative = inhibition;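 also: % of control where 0% means no effect; inhibitors lower the polarisation; unlabelled MLL peptide was the positive control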
ClpP mod – qHTS Assay for Activators of ClpP; ATP-dependent Clp protease proteolytic subunit (Bacillus subtilis (strain 168)), P80244; purified B. subtilis ClpP, FRET peptide cleavage, 20 min; Potency, µM (series often up to 57.5 µM), inactives show at the top dose activity change, negative = active; hit rate 1.9% among 340,000; active = well fitted falling curve with a large enough effect; inconclusive = small, poorly fitted or top-dose-only effect; inactive = no such curve, though single readings can be large or run the other way; also: potency is read from the fitted curve at half-maximal effect; the source files actives as falling curves though it sought activators and does not explain the sign; nearly all actives have a fitted effect of over 65% in size; many hits overshoot -100%
Target sequence (P80244 whole entry, looked up): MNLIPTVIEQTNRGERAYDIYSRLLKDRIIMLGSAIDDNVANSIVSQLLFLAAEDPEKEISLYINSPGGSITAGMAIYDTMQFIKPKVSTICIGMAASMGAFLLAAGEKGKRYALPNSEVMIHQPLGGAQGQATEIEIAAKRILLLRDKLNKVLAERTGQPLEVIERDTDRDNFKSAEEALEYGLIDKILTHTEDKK
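Purified B. subtilis ClpP, 10 microg/mL final in Tris/HCl pH8 with KCl, BSA, glycerol and Tween-20, cleaved an Abz/nitrotyrosine-quenched decapeptide. Fluorescence (ex 320, em 430) was read at 0 and 20 min at room temperature. Delta was normalized to 5.8 microM ADEP and DMSO/no-enzyme controls.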
TRPML1 blocker – blocks the human TRPML1 channel | activity change, negative = inhibition, % (test concentration not listed) | TRPML1-inducible cells, Ca2+ dye fluorescence, FDSS; stronger effect = lower value; inhibition of EC80 agonist-evoked calcium signal | hit rate 0.02% among 390,000 | Q9GZU1; in the data active means activity change below about -50%; inconclusive means about -30% to -50%; inactive means above about -30%;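 also: stimulus is agonist 54-4 at its EC80 concentration; % is scaled to controls: 0 for no effect and ±100 for the full control effect; compound concentration not given in the record; the text of the record puts the active cut at -80%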
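Calcium fluorescence in TRPML1-DL cells induced overnight with Tet: a 110 s read after compound pin addition, then a 110 s antagonist read after challenge with 54-4 at 4 uM final (EC80).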
Numbers without * were called inactive; & = joins results of further samples; [ ] = another dose, or the depositor's remark. This is a random part of the collection; overall some 2.1% were active at least once.

`CCn1c2ccccc2c2cc(CN3CCN(C(=O)c4ccco4)CC3)ccc21` gave TRPML1 ag 1.4, gsp agonist -28%, gsp antag -9%, Menin-MLL FL inh 7.3, ClpP mod -16% and TRPML1 blocker 4.
Screening COCCCNC(=O)CN(Cc1ccc(Cl)cc1)S(C)(=O)=O returned TRPML1 ag -0.5, gsp agonist -4%, gsp antag -15%, Menin-MLL FL inh 0.0, ClpP mod 0.3% and TRPML1 blocker -11.
`CCNC(=S)Nc1cccc(Cl)c1C` gave TRPML1 ag 0.6, gsp agonist -4%, gsp antag -1%, Menin-MLL FL inh -2.5, ClpP mod -0.2% and TRPML1 blocker -13.
COc1cccc(/C=C2\SC(=S)N(NS(=O)(=O)c3ccccc3)C2=O)c1OC was read as TRPML1 ag 0.2, gsp agonist 0%, gsp antag -24%, Menin-MLL FL inh -1.9, ClpP mod -0.3% and TRPML1 blocker -9.
Cc1cc(S(=O)(=O)N2CCC(NC(=O)C34CC5CC(CC(C5)C3)C4)CC2)ccc1-n1cnnn1 was read as TRPML1 ag -0.9, gsp agonist 31%, gsp antag 9%, Menin-MLL FL inh 1.2, ClpP mod 0.5% and TRPML1 blocker -1.
For CC(=O)Nc1ccc(S(=O)(=O)N(C)CC(=O)OCC(=O)N2CCCCC2)cc1 the results were TRPML1 ag 1.0, gsp agonist 16%[15.4 µM], gsp antag 2% and TRPML1 blocker 10.
Screening N/C(COc1ncn(-c2ccccc2)n1)=N\S(=O)(=O)c1ccccc1 returned TRPML1 ag -0.1, gsp agonist -53%[inhibitor], gsp antag 5%, Menin-MLL FL inh -2.1 and TRPML1 blocker -11.
Screening C=CCn1c2ccccc2c2nnc(SCCN3CCOCC3)nc21 returned TRPML1 ag -0.5, gsp agonist 0%, gsp antag 13%, Menin-MLL FL inh -0.8, ClpP mod -0.3% and TRPML1 blocker 4.
`Cc1nnc(N2CCN(C(=O)NCCC(C)C)CC2)c2nn(-c3ccc(Cl)cc3)c(C)c12` gave TRPML1 ag 1.5, ClpP mod -2.4% and TRPML1 blocker 11.
`N#Cc1ccccc1NC(=O)CC1c2ccccc2Oc2ccccc21` gave TRPML1 ag 0.2, gsp agonist -8%, gsp antag 6%, Menin-MLL FL inh 8.0, ClpP mod -1.1% and TRPML1 blocker 3.
For CCOC(=O)C1=C(Cn2cnc3ccccc32)NC(=O)NC1c1ccc(Cl)cc1 (configuration not stated) the results were TRPML1 ag 0.4, gsp agonist 21%, gsp antag -5%, Menin-MLL FL inh 5.1, ClpP mod 0.9% and TRPML1 blocker -12.
Screening Clc1cccc(Cl)c1C[n+]1ccc2ccccc2c1 returned TRPML1 ag 2.0, gsp agonist -1%, gsp antag 7%, Menin-MLL FL inh 18, ClpP mod -13% and TRPML1 blocker -11.
COc1ccc(CNC(=O)CCSc2ccc(F)cc2)cc1OC was read as TRPML1 ag 0.8, gsp agonist -8%, gsp antag 9%, Menin-MLL FL inh -1.4, ClpP mod 2.0% and TRPML1 blocker -12.
`CC1Oc2ccccc2C(=O)N(CC(=O)c2ccc3c(c2)OCCO3)C1=O` (configuration not stated) gave TRPML1 ag -0.8, gsp agonist 0%, gsp antag -14%, ClpP mod 2.3% and TRPML1 blocker -8.
`CC1(C)C(=O)OC(c2ccc([N+](=O)[O-])cc2)C(C)(C)C1=O` (configuration not stated) gave gsp agonist 21%, gsp antag -9%, Menin-MLL FL inh -9.8 and ClpP mod 0.3%.
`CCOc1ccccc1CN1CCN(C2CCC2)CC1CCO` (configuration not stated) gave TRPML1 ag -0.1, gsp agonist -36%[inhibitor], gsp antag -6%, Menin-MLL FL inh -1.9 and TRPML1 blocker 4.
Screening COc1ccc(NC(=O)c2ccc3c(=O)n(CC4CCCO4)c(=S)[nH]c3c2)c(OC)c1 (configuration not stated) returned TRPML1 ag -0.3, gsp agonist 11%[15.4 µM], gsp antag -3%, Menin-MLL FL inh 0.8 and TRPML1 blocker -12.
`CN(Cc1ccco1)C(=O)c1ccc(N2CCCC2=O)cc1` gave TRPML1 ag 0.7, gsp agonist inconclusive, gsp antag 1%, Menin-MLL FL inh 0.9, ClpP mod -1.6% and TRPML1 blocker -3.
Screening CCCCOc1ccc(C(=O)N2CCN(CC(=O)Nc3ccc(C)cc3)CC2)cc1OC returned TRPML1 ag 0.6, gsp agonist -3%, gsp antag -9%, Menin-MLL FL inh 5.7 and TRPML1 blocker 0.
C/C(=N\N=C(N)N)c1cccc(Cl)c1 was read as TRPML1 ag -1.1, gsp agonist 0%[15.4 µM], gsp antag 5%, Menin-MLL FL inh 1.3, ClpP mod 0.3% and TRPML1 blocker 10.
Screening Cc1ccccc1CS(=O)(=O)Cc1ccc(C(=O)NC2CCCCC2)o1 returned TRPML1 ag -0.7, gsp agonist inconclusive, gsp antag -8%, Menin-MLL FL inh 3.1, ClpP mod -1.9% and TRPML1 blocker 0.
`Nc1cccc(-c2cn(-c3cc4cc(C#CC5(O)CCCCC5)ccc4oc3=O)nn2)c1` gave TRPML1 ag -0.2, gsp antag -15%, ClpP mod 1.7% and TRPML1 blocker -8.
For CCN(CC)C(=O)CCc1nnc(Cc2cccc(C(F)(F)F)c2)o1 the results were TRPML1 ag 0.1, gsp agonist 4%[15.4 µM], Menin-MLL FL inh 1.0 and TRPML1 blocker 12.
`Clc1ccc(-c2nnc3sc(Cc4cccs4)nn23)cc1` gave TRPML1 ag 2.8, gsp agonist 12%, gsp antag 12%, Menin-MLL FL inh -0.4, ClpP mod 1.5% and TRPML1 blocker 4.
`CCCN1CCN(CCCNC(=O)C(CC)n2nc(C)n3c(cc4occc43)c2=O)CC1` (configuration not stated) gave TRPML1 ag -0.5&-0.5, gsp agonist inconclusive, gsp antag 13%, Menin-MLL FL inh -1.5, ClpP mod -4.8%&-12% and TRPML1 blocker -3&-4.
Screening Cc1ccc(NC(=O)c2ccc(F)cc2)nc1 returned TRPML1 ag 0.0, gsp agonist -36%[inhibitor], gsp antag 9%, Menin-MLL FL inh 4.8, ClpP mod 0.7% and TRPML1 blocker 13.
Screening Nc1ncnc2c1ncn2[C@H]1C[C@H](O)[C@@H](COP(=O)(O)O)O1 returned TRPML1 ag -0.3, gsp antag 6%, Menin-MLL FL inh 4.1, ClpP mod -0.3% and TRPML1 blocker 11.
CCc1ccc(CNC(=O)C2Cc3cc(S(=O)(=O)N4CCCC4)ccc3N2C(C)=O)cc1 (configuration not stated) was read as TRPML1 ag 0.9, gsp agonist 12%, gsp antag -13%, ClpP mod -2.4% and TRPML1 blocker -12.
`CC(OC(=O)CNC(=O)c1ccc2c(c1)OCO2)C(=O)NCCC1=CCCCC1` (configuration not stated) gave TRPML1 ag -0.5, gsp agonist 8%, gsp antag 2%, Menin-MLL FL inh 3.0, ClpP mod -14% and TRPML1 blocker 3.
Screening CCCCNC(=O)Cn1c(=O)c2c(ncn2CCC(C)C)n(Cc2ccccc2)c1=O returned TRPML1 ag 2.0, gsp agonist 1%, gsp antag -9%, Menin-MLL FL inh 1.5 and TRPML1 blocker 11.
COc1ccc(-c2[nH]c(-c3ccc(F)cc3)nc2SCC(=O)NC2CCCC2)cc1 was read as TRPML1 ag 0.8, gsp agonist -13%, gsp antag -26%, Menin-MLL FL inh 3.8, ClpP mod 4.7% and TRPML1 blocker -4.
`O=C(c1cccc(Cl)c1)N(Cc1cccs1)C1CCS(=O)(=O)C1` (configuration not stated) gave TRPML1 ag -0.3, gsp agonist 6%, gsp antag -8%, Menin-MLL FL inh 1.0, ClpP mod 1.1% and TRPML1 blocker -5.
For O=C1N=C(N2CCCCC2)S/C1=C/C1=Cc2ccccc2OC1 the results were TRPML1 ag 0.6, gsp agonist 30%, gsp antag -2%, Menin-MLL FL inh inconclusive and TRPML1 blocker inconclusive.
Cc1nnc(SCC2=C(C(=O)O)N3C(=O)C(NC(=O)c4cc(F)c(F)cc4Cl)C3SC2)s1 (configuration not stated) was read as TRPML1 ag 0.2, gsp agonist -6%, gsp antag -1%, Menin-MLL FL inh -1.2, ClpP mod -2.2% and TRPML1 blocker 1.
Screening Cc1cc(NC(=O)CCC(=O)N(Cc2ccco2)C2(C(=O)NC3CCCC3)CCCCC2)no1 returned TRPML1 ag -2.0, gsp agonist -4%[15.4 µM], gsp antag 9%, Menin-MLL FL inh -4.9, ClpP mod 1.0% and TRPML1 blocker -8.
`CCCN1Cc2cccc(C(=O)NCc3cccs3)c2C1=O` gave TRPML1 ag 0.0, gsp agonist -33%, gsp antag 15%, Menin-MLL FL inh -0.3, ClpP mod -0.9% and TRPML1 blocker 2.
`Cc1cc(-n2nc(C)cc2C)nc(N)n1` gave TRPML1 ag -1.0, gsp agonist 1%, gsp antag 10%, Menin-MLL FL inh 1.6, ClpP mod -13% and TRPML1 blocker 10.
`COC(=O)c1nn(-c2cccc(C)c2)c2nnc(Cc3ccc(C)cc3)c(=O)n12` gave TRPML1 ag 3.4, gsp agonist -3%, gsp antag -13%, Menin-MLL FL inh 3.2, ClpP mod 1.2% and TRPML1 blocker -10.
Oc1ccc2ccccc2c1C=Nc1ccccc1Br was read as TRPML1 ag -0.3, gsp agonist -31%[inhibitor], gsp antag 0%, Menin-MLL FL inh inconclusive, ClpP mod -6.4% and TRPML1 blocker -4.
`Cc1ccccc1-n1cnnc1SCC(=O)Nc1cccnc1Cl` gave TRPML1 ag -0.3, gsp agonist -6%[15.4 µM], gsp antag 9%, Menin-MLL FL inh 2.5 and TRPML1 blocker -19.
Screening CC(=O)Nc1cccc(NC(=O)Cc2csc(COc3cccc(C)c3)n2)c1 returned TRPML1 ag 1.4, ClpP mod 1.1% and TRPML1 blocker 5.
CC(=O)NCCOc1nc(N(C)C)nc(N2CCOCC2)n1 was read as TRPML1 ag 0.3, gsp agonist 7%, gsp antag -6%, Menin-MLL FL inh 1.9, ClpP mod 1.3% and TRPML1 blocker -8.
O=C(COC(=O)CCC1CCCC1)Nc1ccccc1OC(F)F was read as TRPML1 ag 3.6, gsp agonist -4%[15.4 µM], gsp antag 4%, Menin-MLL FL inh -3.8 and TRPML1 blocker 7.

Part of the list above in order of formula weight, low to high.
`CCCN1Cc2cccc(C(=O)NCc3cccs3)c2C1=O` gave TRPML1 ag 0.0, gsp agonist -33%, gsp antag 15%, Menin-MLL FL inh -0.3, ClpP mod -0.9% and TRPML1 blocker 2.
O=C(COC(=O)CCC1CCCC1)Nc1ccccc1OC(F)F was read as TRPML1 ag 3.6, gsp agonist -4%[15.4 µM], gsp antag 4%, Menin-MLL FL inh -3.8 and TRPML1 blocker 7.
Screening Cc1cc(NC(=O)CCC(=O)N(Cc2ccco2)C2(C(=O)NC3CCCC3)CCCCC2)no1 returned TRPML1 ag -2.0, gsp agonist -4%[15.4 µM], gsp antag 9%, Menin-MLL FL inh -4.9, ClpP mod 1.0% and TRPML1 blocker -8.
